High-throughput results deposited in PubChem by National Center for Advancing Translational Sciences (NCATS).
Menin-MLL FL inh: inhibitors of human menin-MLL interaction, wild-type MLL peptide | Fluorescence polarization, fluorescein-MLL peptide displacement from menin | AID 1766 | FP activity change, % at 61.4 µM | 290,000 tested, under 10 active; inconclusive = falling polarisation curve, or a change in total fluorescence; inactive = total fluorescence flat and polarisation flat or rising; no compound was filed as active; the % refers to the polarisation; negative = inhibition;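 also: % of control where 0% means no effect; inhibitors lower the polarisation; unlabelled MLL peptide was the positive control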
TRPV1 potentiator: potentiators of human vanilloid receptor 1 (TRPV1); potentiation, % at 8.33 µM; TRPV1-expressing cells, Fluo-8 calcium influx, capsaicin EC20 potentiation; host cell line not named in the record; control for the full effect not named in the record; Q8NER1; actives 0.02% (n = 320,000); active means potentiation above 80%; inconclusive means 30% to 80%; inactive means below 30%; also: 0% is about no effect
Target sequence (Q8NER1 whole entry, looked up): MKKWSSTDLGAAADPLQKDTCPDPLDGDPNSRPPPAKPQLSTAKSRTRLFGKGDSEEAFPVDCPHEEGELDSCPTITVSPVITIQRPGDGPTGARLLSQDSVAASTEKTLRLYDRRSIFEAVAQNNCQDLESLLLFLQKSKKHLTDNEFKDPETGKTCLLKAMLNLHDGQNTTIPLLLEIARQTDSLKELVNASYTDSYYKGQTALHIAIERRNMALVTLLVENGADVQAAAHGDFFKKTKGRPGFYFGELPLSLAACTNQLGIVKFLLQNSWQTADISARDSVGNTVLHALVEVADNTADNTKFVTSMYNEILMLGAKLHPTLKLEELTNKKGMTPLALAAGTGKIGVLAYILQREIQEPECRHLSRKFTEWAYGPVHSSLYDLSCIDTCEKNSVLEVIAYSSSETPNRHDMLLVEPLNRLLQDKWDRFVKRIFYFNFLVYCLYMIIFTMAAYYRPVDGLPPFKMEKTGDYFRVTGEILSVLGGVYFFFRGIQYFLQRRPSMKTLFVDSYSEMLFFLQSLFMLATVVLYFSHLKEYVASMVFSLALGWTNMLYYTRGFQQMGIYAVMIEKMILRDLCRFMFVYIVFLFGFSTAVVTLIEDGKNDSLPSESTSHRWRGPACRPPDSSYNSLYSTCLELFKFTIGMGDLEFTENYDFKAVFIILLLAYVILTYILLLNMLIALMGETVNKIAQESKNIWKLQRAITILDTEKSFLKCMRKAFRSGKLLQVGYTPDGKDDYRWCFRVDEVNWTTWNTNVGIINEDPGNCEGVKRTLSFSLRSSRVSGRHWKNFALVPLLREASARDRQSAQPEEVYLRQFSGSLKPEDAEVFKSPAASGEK
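Cells expressing TRPV1 were dye-loaded with Fluo-8 and read kinetically: 10 s baseline, 3 min after compound (agonist portion), then 2 min after EC20 capsaicin (allosteric enhancer portion). Calcium-bound dye fluorescence at 480/520 nm.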
gsp antag: antagonists of gsp mutant (McCune-Albright syndrome) | gsp-mutant cells, cAMP HTRF, 30 min; control for the full effect not named in the record | AID 624288 | Potency, µM (doses to about 76.9 µM), without a hit: at the top dose activity change, negative = inhibition, most hits filed as inhibitors | actives 0.4% (n = 340,000); active = falling curve of any shape with a large fitted effect; inconclusive = falling curve, mostly with a smaller effect; inactive = flat or rising curve; cell line not stated here;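 also: intracellular cAMP measured with PDE inhibitor Ro 20-1724 present during compound exposure; potency is read from the fitted curve at half-maximal effect; % is scaled to controls: 0 for no effect and ±100 for the full control effect; nearly all actives have a fitted effect of over 65% in size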
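HTRF cAMP read-out (cAMP-d2 plus anti-cAMP antibody-K in lysis buffer, 30 min RT). Before lysis, cells are exposed to compounds with […] for 30 min at 37C in DPBS containing Ca/Mg, BSA and Tween 20.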
D2 potentiator: potentiates the human D2 dopamine receptor allosterically. DiscoveRx D2 beta-arrestin cells, luminescence, 90 min; 100% = 57 uM dopamine signal. AID 624464. actives 0.23% (n = 360,000). potentiation, % (no concentration beside the values); active = potentiation of 50% or more; inconclusive = 30% to 50%; inactive = 30% or less;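 also: compound concentration not given in the record; tested on top of an EC20 dose of dopamine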
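PathHunter beta-arrestin assay in DiscoveRx D2 cells. Compounds were added with an EC20 of dopamine (50 nM final) for 90 min at 37 deg C. Luminescence was read 1 h after detection reagent, with 57 uM dopamine as the EC100 control.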
gsp agonist: gsp mutant agonism; actives 0.13% (n = 340,000); gsp mutant cells, cAMP HTRF, 30 min; control for the full effect not named in the record; Potency, µM (titrated, usually from 76.9 µM), inactives show at the top dose activation (cAMP increase), usual class: activators; AID 624287; active = well fitted activation curve with a large enough effect; inconclusive = small, poorly fitted or top-dose-only effect, or another doubt; inactive = no such curve, though single readings can be large or run the other way; cell line not stated here;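 also: phosphodiesterase inhibitor Ro 20-1724 added with compounds to block cAMP breakdown; potency is read from the fitted curve at half-maximal effect; nearly all actives have a fitted effect of over 60% in size; about a fifth of the inactives were tested at one dose only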
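Cells stably selected in G418 were plated at 2000/well, grown 16-24 hr, then given compounds in DMSO with the PDE inhibitor […] (300 uM solution added) for 30 min at 37C; cAMP was read by HTRF.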
Sfp inh: inhibitors of Bacillus subtilis Sfp phosphopantetheinyl transferase; actives 3.5% (n = 310,000); AID 1490; Potency, µM, for inactives: max response, negative = inhibition, actives largely listed as inhibitors; Q9F4F7; Biochemical Sfp PPTase activity, qHTS; active = well fitted inhibition curve with a large enough effect; inconclusive = small, poorly fitted or top-dose-only effect, or another doubt; inactive = no such curve, though single readings can be large or run the other way;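 also: the enzyme is Sfp with the accession as filed and its product quenches rhodamine fluorescence; potency is read from the fitted curve at half-maximal effect; 0% = enzyme reaction without inhibitor and -100% = no enzyme wells; top concentration of the series not given in the record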
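Step 1, compound plus 15 nM Sfp-PPTase, 15 min, room temperature. Step 2, add rhodamine-CoA (5 uM) and BHQ-2-YbbR (12.5 uM). Step 3, read 525/598 nm fluorescence at 0 and 30 min.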
ClpP mod: qHTS Assay for Activators of ClpP | ATP-dependent Clp protease proteolytic subunit (Bacillus subtilis (strain 168)), P80244 | purified B. subtilis ClpP, FRET peptide cleavage, 20 min | Potency, µM (top dose mostly 57.5 µM), for the others: at the top dose activity change, negative = active | actives 1.9% (n = 340,000) | AID 651965, 2013; active = well fitted falling curve with a large enough effect; inconclusive = small, poorly fitted or top-dose-only effect; inactive = no such curve, though single readings can be large or run the other way; also: potency is read from the fitted curve at half-maximal effect; the source files actives as falling curves though it sought activators and does not explain the sign; nearly all actives have a fitted effect of over 65% in size; many hits overshoot -100%
Target sequence (P80244 whole entry, looked up): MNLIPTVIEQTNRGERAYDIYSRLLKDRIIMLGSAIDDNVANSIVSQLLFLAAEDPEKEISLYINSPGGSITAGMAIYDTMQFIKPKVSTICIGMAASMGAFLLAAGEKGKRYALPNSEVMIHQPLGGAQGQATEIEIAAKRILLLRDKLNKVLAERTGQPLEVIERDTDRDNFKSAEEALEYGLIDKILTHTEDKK
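ClpP 10 microg/mL final, pH 8 Tris/KCl buffer with BSA, glycerol, Tween-20; compound pinned in; FRET-FV substrate; RT 20 min; Ex320/Em430; ΔFRET vs ADEP 5.8 microM, DMSO, no enzyme.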
Starred values were filed as active, the others as inactive; u = inconclusive; x = no result given; & = joins results of further samples; [ ] = another dose, or the depositor's remark.

SMILES	Menin-MLL FL inh	TRPV1 potentiator	gsp antag	D2 potentiator	gsp agonist	Sfp inh	ClpP mod
O=C(O)c1[nH]c2ccccc2c1CC(=O)N1CCOCC1	-7.3	12.3	3.8%	1.3	-15.0%	23.0%	-10.0%
Cc1ccc(S(=O)(=O)NCCNc2ccccc2[N+](=O)[O-])cc1	-1.3	6.0	2.4%	-13.0	-21.7%[15.4 µM]	-6.5%	0.7%
CCCCn1c(SCC(=O)Nc2cc(C)on2)nc2ccccc2c1=O	5.5	-3.1	37.8%[activator]	-6.8	44.3%	13.5%	4.2%
CC(C)NC(=O)CN1CCN(c2ncccn2)CC1	4.0	0.8	1.3%	6.8	-0.4%	79.4µM*	0.2%
COc1ccc(C2(CNC(=O)c3ccc(OC)c([N+](=O)[O-])c3)CCCCC2)cc1OC	3.3	-8.7	-20.6%	-8.0	-13.8%	-2.5%	0.7%
O=C(CSc1ccc(-c2ccncc2)nn1)c1ccccc1	-2.3	-19.5	-12.4%	-6.2	-6.9%	8.2%	0.7%
CCCCNC(=O)NC1(C(F)(F)F)Oc2ccccc2O1	9.7	-9.6	7.5%	-4.2	-36.9%[inhibitor]	9.2%	-2.2%
CCOC(=O)c1ccc(-n2ccnc2)c(NC(=O)c2cccc(Br)c2)c1	0.3	3.8	-5.1%	-1.7	16.5%[15.4 µM]	9.5%	-3.9%
Cc1ccc2c(c1)[nH]c1c(N3CCN(Cc4ccc5c(c4)OCO5)CC3)ncnc12	1.9	-17.9	x	x	x	6.0%	x
COC(=O)c1ccc(NC(=O)c2cc[n+]([O-])cc2)cc1	-0.3	-10.4	4.4%	-4.8	-25.3%	17.0%	x
CCN(CC)CCCNC(=S)N(Cc1cccs1)Cc1cc2cc3c(cc2[nH]c1=O)OCCO3	8.3	1.5	5.0%	-2.9	-0.8%[15.4 µM]	-6.3%	x
CCOC(=O)c1c(NC(=O)CSc2cccc[n+]2[O-])sc(C(=O)Nc2ccccc2)c1C	-1.0	5.5	u	5.8	-23.9%	u	x
Cc1ccc(-n2ncc(-c3nn[nH]n3)c2N)cc1	-1.0	u	-9.9%	-1.3	15.3%	-20.5%	x
COc1cc(NC(=O)C2CCCCC2)c(OC)cc1NC(=O)c1ccco1	3.9	-10.9	-13.2%	-26.9	15.1%	9.5%	-2.4%
Cc1cccc(Cn2c(CN3CCN(Cc4ccccc4)CC3)nc3c2c(=O)[nH]c(=O)n3C)c1	-1.7	2.5	-2.3%	-11.1	3.3%	-4.5%	-1.2%
O=[N+]([O-])c1cccc(C2(O)COc3ccccc3O2)c1 (stereo not given)	1.4	5.2	-1.3%	-1.3	20.4%[15.4 µM]	20.1%	-3.5%
CCOC(=O)c1ccc(NC(=S)NC(=O)C2CCCC2)cc1	x	0.7	-16.6%	1.5	-11.8%	-18.2%	1.7%
Cc1cccc2cc(COC(=O)C3CCCCC3)c(=O)[nH]c12	5.4	1.7	11.5%	-11.5	1.1%	10.4%	-6.7%
O=C(C[C@H]1C(=O)N(C2CCCCC2)C[C@@H]1Cc1ccccc1)Nc1ccccc1	-8.9	9.8	-7.7%	-8.3	x	5.5%	0.6%&-0.5%
O=C(CNS(=O)(=O)c1ccc(Br)cc1)NCc1ccncc1	-2.8	-4.2	7.0%	-5.2	17.5%[15.4 µM]	6.5%	x
Cn1cccc1Cc1nnc(SCC(=O)N2CCOCC2)n1CCc1ccccc1	3.0	-6.3	2.6%	-0.1	-61.5%[inhibitor]	-4.5%	-2.1%
Cc1cccc(C(=O)NCC(=O)N(C)Cc2nc3ccccc3c(=O)[nH]2)c1	x	x	1.0%	-5.4	-7.3%	x	-2.3%
Cn1c(N)c(C(=O)COC(=O)c2cc(S(=O)(=O)N3CCCCC3)ccc2Cl)c(=O)n(C)c1=O	3.0	26.4	19.5%	-4.2	0.8%	-18.7%	1.4%
Cc1ccc(CNC(=O)C(=O)NCCC2=CCCCC2)cc1	3.9	-0.1	14.3%	-2.7	-26.1%	21.6%	1.2%
COCCCNC(=O)C1CCC(CNS(=O)(=O)c2ccc(C)cc2)CC1 (stereo not given)	-2.3	11.5	x	x	x	17.0%	x
O=C(NCCN1CCN(c2ccc([N+](=O)[O-])cc2)CC1)NCc1ccccc1	2.0	-15.3	9.3%	-4.7	15.3%	4.5%	-2.4%
C[C@H](NS(=O)(=O)c1ccccc1F)C(=O)OCC(=O)N1CCc2ccccc21	-0.8	5.5	-12.2%	1.2	15.1%	8.1%	-1.7%
CCOc1ccc(OCC)c(S(=O)(=O)N2CCCCC2C)c1 (stereo not given)	4.1	x	-1.9%	-8.1	-24.9%	-2.3%	-1.8%
Cc1ccc(S(=O)(=O)N2CCN(C(=O)c3ccc(N4CCCCC4)c([N+](=O)[O-])c3)CC2)cc1	-4.4	-4.5	-9.2%	-8.4	1.7%	12.8%	-1.2%
CCOc1ccc(/C=C2\SC(=S)N(C)C2=O)cc1OC	-5.0	1.3	2.2%	0.5	8.5%	2.1%	x
COC(=O)c1ccc(Nc2cc(C)nc3ncnn23)cc1	-1.3	1.5	17.4%	-8.1	8.2%	2.5%	-4.1%
CN(C)S(=O)(=O)c1cc(NC(=O)COC(=O)Cc2ccc(Br)cc2)ccc1Cl	9.2	-1.4	10.3%	-3.7	7.1%	24.4%	1.7%
CCn1c(-c2ccccn2)nc2cc(S(=O)(=O)N(C)C)ccc21	-8.8	-9.7	9.4%	-6.9	14.7%[15.4 µM]	3.0%	x
CCOCCCNC(=O)c1ccc(NC(=O)C2CCCO2)cc1 (stereo not given)	-10.4	-15.4	12.9%	-3.7	-5.8%	2.5%	1.1%
Cc1ccccc1-c1nnc(-c2ccccc2C)o1	1.6	-8.4	-6.7%	3.0	-7.7%	15.0%	-13.9%
Cc1c(C(=O)N(Cc2ccc(N(C)C)cc2)C2CCS(=O)(=O)C2)oc2ccccc12 (stereo not given)	-3.1	-19.6	-25.3%	-6.6	22.3%	-9.8%	-1.3%
CCN(CC)S(=O)(=O)c1ccc(-c2nnc(SCC(=O)Nc3ccc(OC)c(OC)c3)o2)cc1	1.0	1.9	1.9%	-20.9	20.8%	4.3%	0.8%
O=C(NNC(=O)C1CCCO1)c1ccc(Br)cc1 (stereo not given)	2.9	4.4	-0.1%	-18.5	-9.4%	8.9%	-0.2%
S=C1NCCNC(=S)NCCOCCOCCOCCN1	-1.4	7.4	x	-10.8	-1.1%[15.4 µM]	17.5%	x
O=C(COC(=O)CNC(=O)C1CCCCC1)Nc1ccc2c(c1)OCCO2	-1.7	5.9	0.4%	-5.2	6.9%[15.4 µM]	19.1%	-0.4%
COc1ccc(-c2noc3c2-c2nc(-c4ccccc4F)sc2CC3)cc1	5.7	18.4	11.6%	-19.0	x	-21.1%	-2.4%
COc1ccc(OCC(=O)Nc2ccc(N3CCOCC3)cc2)c([N+](=O)[O-])c1	0.0	16.4	2.5%	-10.2	19.5%	7.6%	0.9%
Oc1ccc(-c2nnc(Nc3cccc(O)c3)c3ccccc23)cc1	4.9	-0.2	u	-2.0	-10.7%	-14.0%	-2.5%
Cc1ccc2nc(SCC(=O)N3CC(C)OC(C)C3)nc(=O)n2c1 (stereo not given)	x	8.3	18.7%	3.4	u	x	-28.0%
O=C(Nn1cnnc1)c1cc2c(s1)CCCCC2	-2.2	-3.3	-4.2%	1.3	2.9%	18.2%	0.4%
Cc1nnc(SCc2cc([N+](=O)[O-])cc3c2OCOC3)n(N)c1=O	2.5	-0.4	2.4%	5.6	u	10.7%	0.4%
CCc1ccc(NC(=O)CNC(=O)[C@@H]2Cc3ccccc3CN2C(=O)OC(C)(C)C)cc1	x	11.1	-13.2%	-3.5	-45.7%[inhibitor]	-0.1%	2.6%
COc1cccc(CN(C)C(=O)CN2C(=O)NC(c3ccccc3)(c3ccccc3)C2=O)c1	x	-8.3	4.7%	-3.0	-34.2%[inhibitor]	x	0.2%
CC(C)(C)c1ccc(C(=O)Nc2ccc(C=C(C#N)C#N)cc2)cc1	6.4	-16.3	-15.3%	-22.1	10.3%	-12.4%	0.7%
CC(NC(=O)c1ccc(N)cc1)c1ccccc1 (stereo not given)	-1.1	-0.1	1.6%	-9.0	-30.6%	21.6%	-2.4%
COc1ccccc1NCCC(=O)OCC(=O)Nc1ccccc1F	x	x	2.6%	-3.6	-56.8%[inhibitor]	x	1.1%
O=C(N/N=C/c1c(Cl)cccc1Cl)c1ccccc1F	-1.9	7.8	-5.9%	-24.9	-5.7%[15.4 µM]	u	5.3%
O=C(CN1C(=O)/C(=C/c2cccc(Br)c2)SC1=S)Nc1cccnc1	7.8	11.6	-9.3%	1.5	-4.3%[15.4 µM]	-5.3%	x
CC(=O)c1c(O)cc(O)cc1O	2.5	x	-2.7%	-15.4	x	-5.6%	1.2%
COC(=O)c1ccc(C(=O)OC)c(NC(=O)COC(=O)C23CC4CC(CC(O)(C4)C2)C3)c1	2.0	-15.0	u	-24.3	4.6%	-5.8%	u
CCOc1ccccc1OCCNC1CCCC1	0.2	4.2	-0.4%	-17.3	-1.2%	-9.8%	-1.8%
CSCCC(NC(=O)c1ccccc1)C(=O)OCC(=O)NCc1ccco1 (stereo not given)	x	x	-5.5%	0.1	u	x	-1.2%
CCOc1ccc(/C=N\NC(=O)CC(=O)NCCc2ccccc2)cc1	0.1	2.9	-0.5%	-0.6	-1.6%	5.0%	-0.2%
c1ccc(-c2nnc(OCCN3CCOCC3)c3ccccc23)cc1	-0.7	10.7	-6.8%	-34.2	u	-7.1%	1.2%
C[C@@H]1CN([C@H](C)CO)C(=O)CCCn2nncc2CO[C@H]1CN(C)S(C)(=O)=O	x	x	x	7.1	-8.6%	x	1.9%
Cc1ccc(C(O)P(=O)(OC2CCCCC2)OC2CCCCC2)cc1 (stereo not given)	1.2	13.6	19.5%	-20.0	22.4%	0.3%	0.7%

Rows are unselected; 5.1% or so of the library scored in one or more.
